MenB inh: Mtb MenB enzyme inhibition. P9WNP5. MenB enzyme assay, absorbance read-out; some hits fall short of the stated cut. inhibition, %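 (about 12 µg/mL by stock and volumes)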. hit rate 0.43% among 100,000;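 active = mean of two replicates above 30%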;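 also: 0% = no compound and 100% = wells with inactive enzyme; the first replicate is given; strong numbers were not always called active; inactives centre near -10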
MbtI inh: inhibitors of Mycobacterium tuberculosis siderophore enzyme MbtI | P9WFX0 | inhibition, %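 (about 17 µg/mL by stock and volumes)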 | purified MbtI enzyme, fluorescence intensity read-out | AID 493033 | hit rate 0.89% among 100,000;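 active = above 50% in both replicates, above 80% if mildly self-fluorescent; inactive = the rest, strongly fluorescent compounds included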;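 also: 0% = mean of negative and 100% = mean of positive controls; one replicate is shown; some compounds called inactive have numbers as strong as hits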
Target sequence (P9WFX0 whole entry, looked up): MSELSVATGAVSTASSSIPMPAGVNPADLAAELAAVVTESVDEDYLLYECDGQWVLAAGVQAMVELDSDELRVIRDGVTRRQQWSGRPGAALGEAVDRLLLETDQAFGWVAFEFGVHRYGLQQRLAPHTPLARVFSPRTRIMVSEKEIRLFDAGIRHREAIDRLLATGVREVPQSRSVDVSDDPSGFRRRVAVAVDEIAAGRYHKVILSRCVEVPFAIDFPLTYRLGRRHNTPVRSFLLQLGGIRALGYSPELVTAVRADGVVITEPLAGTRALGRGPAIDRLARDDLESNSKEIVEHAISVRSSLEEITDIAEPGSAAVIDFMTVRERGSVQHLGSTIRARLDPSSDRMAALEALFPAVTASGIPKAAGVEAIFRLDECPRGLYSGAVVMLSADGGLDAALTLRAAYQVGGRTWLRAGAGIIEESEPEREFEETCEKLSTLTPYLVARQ
PV pol inh: inhibitors of poliovirus RNA polymerase binding and polymerization; P03300; poliovirus polymerase elongation, fluorescence polarization; active compounds read low; % elongation, % (compound at 16.7 µg/mL); hit rate 0.66% among 150,000; AID 588519; in the data active = % elongation below about 90%; also: some results filed as inactive read as strong as hits
Target sequence (P03300 1749-2209 limits assumed): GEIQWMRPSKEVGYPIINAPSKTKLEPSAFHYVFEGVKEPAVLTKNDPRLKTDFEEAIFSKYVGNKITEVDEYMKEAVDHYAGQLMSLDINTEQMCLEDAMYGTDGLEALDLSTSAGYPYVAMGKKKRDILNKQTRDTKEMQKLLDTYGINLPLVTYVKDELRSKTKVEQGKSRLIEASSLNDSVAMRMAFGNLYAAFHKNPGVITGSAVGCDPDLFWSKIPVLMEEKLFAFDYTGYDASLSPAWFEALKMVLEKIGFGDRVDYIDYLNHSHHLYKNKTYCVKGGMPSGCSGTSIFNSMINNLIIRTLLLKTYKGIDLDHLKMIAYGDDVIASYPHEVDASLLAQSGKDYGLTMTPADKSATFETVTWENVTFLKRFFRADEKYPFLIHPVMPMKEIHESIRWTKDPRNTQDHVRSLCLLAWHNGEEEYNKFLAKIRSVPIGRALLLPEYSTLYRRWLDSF
PV pol inh intensity: second read-out of PV pol inh, no call of its own (marks repeat the call); % elongation; measured here: total intensity read-out; formula for this scale not given here;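 total fluorescence in place of polarization; lower means less elongation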
Starred values were filed as active, the others as inactive; . = not tested or not shown; & = joins results of further samples.

SMILES | MenB inh | MbtI inh | PV pol inh | PV pol inh intensity
CC12CN3CC(C)(CN(C1)C3c1ccccc1)C2 (configuration not stated) | -16 | -7 | 102 | 103
Cc1nc(N)sc1-c1csc(Nc2ccccc2)n1 | -24 | 26 | 102 | 102
O=C(CCc1nc2ccccc2s1)N1CCN(Cc2ccccc2)CC1 | -1 | 3 | 97 | 94
Cc1nc(N2CCN(CC(=O)NC3CC3)CC2)c2c(-c3ccccc3)csc2n1 | 3 | -5 | 103 | 102
O=C(O)CCc1nc(-c2ccco2)no1 | -31 | 2 | 103 | 101
CN(Cc1ccccc1)C(=O)Cn1cc(S(=O)(=O)N2CCCC2)c(S(=O)(=O)N2CCCC2)c1 | 0 | -20 | 99 | 103
O=C(CSc1ncccc1C(=O)N1CCc2ccccc2C1)Nc1ccc2c(c1)OCO2 | -12 | 1 | 103 | 111
COC(=O)c1cc(-c2ccc3c(c2)OCO3)no1 | -17 | . | 107 | 101
CCCN1C(=O)C(O)(c2c[nH]c3ccccc23)c2ccccc21 (configuration not stated) | -5 | -8 | 102 | 106
O=C(/C=C/c1cccs1)OCc1csc(-c2ccccc2)n1 | -4 | 12 | 105 | 101
CC/C=C\C/C=C\C/C=C\CCCCCCCC(=O)O | -3 | -14 | 99&99 | 105&104
Cc1ccccc1NS(=O)(=O)C(F)(F)F | . | -30 | 102 | 105
O=Nc1c(O)[nH]c2c(F)cccc12 | -12 | 13 | 99 | 102
CCOc1ccc(C(=O)NCC2CCN(c3nc(C)cc(C)n3)CC2)cc1 | -10 | 11 | 104 | 102
Brc1ccc(-c2nnc(C34CC5CC(CC(C5)C3)C4)o2)cc1 | -20 | 5 | 102 | 99
CC(C)[N+]1(C)C2CC[C@@H]1CC(OC(=O)C(CO)c1ccccc1)C2 (some centres not stated) | -4 | -14 | 101 | 104
Cc1ccc(NC(=O)C2(N3CCN(c4ccccc4)CC3)CCCCC2)cc1 | -19 | -4 | 101 | 104
CC(=O)N1CC(=O)N=C1SCC(=O)Nc1ccc(S(N)(=O)=O)cc1 | -10 | -8 | 102 | 96
O=C(c1ccc(NC(=S)NCc2ccco2)cc1)N1CCCCC1 | -29 | -5 | 101 | 104
O=C(CCc1ccccc1)NCc1ccc2c(c1)OCO2 | -54 | -5 | 103 | 100
Cc1cc(C(=O)COc2ccc(Cl)cc2)c(C)n1-c1ccon1 | 2 | -3 | 104 | 101
O=S(=O)(c1ccc(F)cc1)N1CCCN(c2nccc(C(F)(F)F)n2)CC1 | -10 | -3 | 105 | 105
CC(C)(C)c1ccc(C2NC(=O)c3ccccc3N2)cc1 (configuration not stated) | -46 | 99 | 101 | 99
CCN1N=C(C)C=C(C)n2c1nc1ccccc12 | -1 | . | 100 | 96
C=CCN(C(=O)Cn1c(=O)n(Cc2ccco2)c(=O)c2cc(OC)c(OC)cc21)c1ccccc1 | -28 | -1 | 100 | 100

The last three records of the part before lead into the next.
SMILES | MenB inh | MbtI inh | PV pol inh | PV pol inh intensity
CC(C)(C)c1ccc(C2NC(=O)c3ccccc3N2)cc1 (configuration not stated) | -46 | 99 | 101 | 99
CCN1N=C(C)C=C(C)n2c1nc1ccccc12 | -1 | . | 100 | 96
C=CCN(C(=O)Cn1c(=O)n(Cc2ccco2)c(=O)c2cc(OC)c(OC)cc21)c1ccccc1 | -28 | -1 | 100 | 100
O=C(Cc1ccc(-n2cccc2)cc1)NCCc1ccccc1 | -6 | -4 | 102 | 101
COc1ccc(C(=O)Cc2cc3ccccc3oc2=O)c(OC)c1 | -9 | -30 | 101 | 103
Cc1ccc(C)c(S(=O)(=O)c2nnn3c2nc(N2CCC(C(N)=O)CC2)c2sccc23)c1 | -4 | 120 | 99 | 100
O=C(CSc1ccccn1)Nc1ncccn1 | -3 | 17 | 99 | 105
O=c1cc(Cc2nnc(SCc3c(F)cccc3Cl)n2-c2ccc(F)cc2)[nH]c(=O)[nH]1 | -11 | 8 | 103 | 103
COc1ccc(C(=O)Nc2ccc(C)c(C)c2)cc1 | 3 | . | 104 | 97
CCOC(=O)c1ccc2c(c1)sc1nc(-c3cccc(OC)c3)cn12 | -39 | -13 | 103 | 99
OC(COCc1ccccc1)CN1CCN(c2ccccc2)CC1 (configuration not stated) | 12 | 5 | 104 | 98
O=c1c2ccccc2nnn1CN1CCN(S(=O)(=O)c2cccs2)CC1 | 3 | 18 | . | .
Nc1ncnc2sc3c(c12)CCCC3 | -25 | -1 | 101 | 101
COC(=O)C1=C(CN2CCC(C)CC2)NC(=O)NC1c1ccc(OC)cc1 (configuration not stated) | -75 | -2 | 105 | 101
N#CC1C2CCC(C2)C1C(=O)c1ccccc1 (configuration not stated) | -14 | . | 108 | 105
Cc1ccc(OCCCn2c(=O)oc3ccccc32)cc1 | -10 | . | 102 | 110
COc1ccc(C2CC(c3ccccc3)n3ncnc3N2C(=O)C2CC2)cc1 (configuration not stated) | -30 | -1 | 101 | 99
c1ccc2c(c1)ncc1cccn12 | -6 | 88 | 100 | 105
Cc1[nH]c2ccccc2c1C(=O)C(C)OC(=O)c1cccc(N(C)C)c1 (configuration not stated) | -16 | 104 | 108 | 106
O=C(Nc1ccc(O)cc1)C(=O)c1c(O)[nH]c2ccccc12 | 7 | 21 | 103 | 111
CCCCS(=O)(=O)Nc1cc(C(=O)OC)cc(C(=O)OC)c1 | -1 | -5 | 100 | 102
CC(=O)N1CCOc2ccc(S(=O)(=O)Nc3cc(C(F)(F)F)cc(C(F)(F)F)c3)cc21 | -24 | -14 | 103 | 103
Cc1oc(C(C)(C)C)cc1-c1cc(N)n(-c2ccc(I)cc2)n1 | 10 | -9 | 101 | 105
Cc1n[nH]c(C)c1Nc1nc(-c2ccccc2)cs1 | -13 | -11 | 100 | 104
CC(O/N=C/c1ccccc1OC(F)F)C(=O)NC1CCCC1 (configuration not stated) | -8 | -5 | 104 | 103
Cc1cc(C(=O)OC(C)C(=O)Nc2cccc(Cl)c2)c2ccccc2n1 (configuration not stated) | . | -5 | 100 | 106
CCOC(=O)C1=C(C)NC(C)=C(C(=O)OCC)C1C(=O)OCC(=O)NC1CCCCCC1 | -33 | -193 | 101 | 98
O=C(NCc1ccccc1)c1cnc(N2CCCC2)nc1 | -11 | -4 | 103 | 103

Of the compounds above, these have a furan ring, fused or not.
SMILES | MenB inh | MbtI inh | PV pol inh | PV pol inh intensity
O=C(O)CCc1nc(-c2ccco2)no1 | -31 | 2 | 103 | 101
O=C(c1ccc(NC(=S)NCc2ccco2)cc1)N1CCCCC1 | -29 | -5 | 101 | 104
C=CCN(C(=O)Cn1c(=O)n(Cc2ccco2)c(=O)c2cc(OC)c(OC)cc21)c1ccccc1 | -28 | -1 | 100 | 100
Cc1oc(C(C)(C)C)cc1-c1cc(N)n(-c2ccc(I)cc2)n1 | 10 | -9 | 101 | 105

Structural class, those above containing two or more sulfur atoms.
SMILES | MenB inh | MbtI inh | PV pol inh | PV pol inh intensity
Cc1nc(N)sc1-c1csc(Nc2ccccc2)n1 | -24 | 26 | 102 | 102
CN(Cc1ccccc1)C(=O)Cn1cc(S(=O)(=O)N2CCCC2)c(S(=O)(=O)N2CCCC2)c1 | 0 | -20 | 99 | 103
O=C(/C=C/c1cccs1)OCc1csc(-c2ccccc2)n1 | -4 | 12 | 105 | 101
CC(=O)N1CC(=O)N=C1SCC(=O)Nc1ccc(S(N)(=O)=O)cc1 | -10 | -8 | 102 | 96
Cc1ccc(C)c(S(=O)(=O)c2nnn3c2nc(N2CCC(C(N)=O)CC2)c2sccc23)c1 | -4 | 120 | 99 | 100
O=c1c2ccccc2nnn1CN1CCN(S(=O)(=O)c2cccs2)CC1 | 3 | 18 | . | .

(cont.)
SMILES | MenB inh | MbtI inh | PV pol inh | PV pol inh intensity
Cc1ccccc1N1C(S)=C(C#N)C(=O)NC1c1ccco1 (configuration not stated) | -28 | 32 | 95 | 104
c1ccc2c(c1)nc(N1CCOCC1)n1cc(N3CCCC3)nc21 | -20 | 35 | 100 | 122
c1ccc(CN2CCN(Cc3ccccc3)C2c2ccccc2)cc1 | 8 | -4 | 100 | 101
COC(=O)C1CC2CCC1C2 (configuration not stated) | 9 | 12 | 104 | 95
CSc1cc(-c2ccc(F)cc2)nn1S(=O)(=O)c1cccc(C(F)(F)F)c1 | -24 | -5 | 112 | 107
O=C(CCc1nc2ccccc2[nH]1)N1CCN(C2CCCCC2)CC1 | -9 | -4 | 104 | 108
CC(C)(C)NC(=S)N1CCn2cccc2C1c1ccc(F)cc1 (configuration not stated) | -17 | -14 | 103 | 102
COc1cc(OC)cc(C(=O)N/C(N)=N\c2nc3ccccc3s2)c1 | 4 | 17 | 100 | 103
O=C(CSc1ccccc1Cl)c1ccco1 | . | 16 | 102 | 107
CN(C(=O)CSc1ccc(Br)cc1)C1CCCCC1 | . | -6 | 105 | 107
Cc1nn(CC(C)C)c(Cl)c1C(=O)N1CCc2ccccc2C1 | 15 | 0 | 97 | 102
Oc1cc(Cc2nc3ccccc3s2)c(O)cc1Cc1nc2ccccc2s1 | -5 | 12 | 101 | 97
Nc1ccccc1NC1=CC(=O)CC(c2ccccc2)C1 (configuration not stated) | -11 | -196 | 102 | 104
O=c1[nH]c2ccccc2n1C1CCN(CCCC(c2ccc(F)cc2)c2ccc(F)cc2)CC1 | -7&-12 | -9&-10&-15 | 100&102&100 | 101&100&99
Cc1occc1-c1nnc(SCc2nn[nH]n2)n1-c1ccccc1 | 6 | -16 | 104 | 103
Cc1cccc(CCNCc2cc3cc4c(cc3[nH]c2=O)OCO4)c1 | -15 | 34 | 101 | 103
CCn1c(/N=C(\C)c2cc(Cl)ccc2O)nc2ccccc21 | . | -4 | 97 | 109
O=C(O)CC1CCCC(c2ccccc2)C1=O (configuration not stated) | 4 | -15 | 99 | 101
CCn1c(SCC(=O)N2CCCc3ccccc32)nnc1-c1c[nH]c2ccccc12 | -11 | -1 | 104 | 103
Cc1ccccc1OCCCC(=O)Nc1cccc(C(F)(F)F)c1 | -10 | . | 103 | 101
CCCCOc1cccc2c1CCN(Cc1ccccc1)C2=O | -34 | -6 | 102 | 97
O=c1nc(N2CCOCC2)nc(N2CCOCC2)[nH]1 | -9 | 5 | 100 | 103
CCC(Sc1nnc(COc2ccccc2)n1C)C(=O)Nc1ccccc1 (configuration not stated) | -37 | -11 | 104 | 104
CCCCc1ccc2nc(N)sc2c1 | . | -4 | 99 | 96
N#C/C(=C\c1ccc(-c2ccccc2)o1)c1ccccc1 | -59 | 4 | 103 | 106
The results go on:
SMILES | MenB inh | MbtI inh | PV pol inh | PV pol inh intensity
CCCOC(=O)C1=C(C)N(CC)C(=O)NC1c1ccccc1Cl (configuration not stated) | -9 | -3 | 102 | 107
O=C1c2nc3cc(-c4ccccc4)[nH]n3c(=O)c2CN1Cc1ccccc1 | 1 | -111 | 106 | 116
O/C(=C\Sc1nnc(Cc2ccccc2)o1)c1ccc(F)cc1 | -11 | -10 | 101 | 109
COc1cccc(/C=N/n2cnnc2)c1 | 10 | . | 100 | 102
O=C(C1COc2ccccc2O1)N1CCCC1 (configuration not stated) | -2 | -18 | 103 | 101
COc1cc2[nH]c(=O)n(CCCC(=O)N3CCN(c4ccc(Cl)cc4)CC3)c(=O)c2cc1OC | -37 | -1 | 102 | 101
Cc1ccsc1C=NCCc1ccc(S(N)(=O)=O)cc1 | 3 | -4 | 104 | 107
NC1=NC(=O)/C(=C/c2ccc(I)o2)S1 | -121 | . | 117 | 227
CN(C)S(=O)(=O)c1ccc(SCC(=O)NC(C)(C)C)nc1 | -12 | 44 | 99 | 98
Nc1c(Br)cc(Br)c2cccnc12 | -5 | -3 | 98 | 101
Cc1cccc(-c2nc3ccccc3n2CCC(C)C)c1 | -29 | 2 | 103 | 98
O=C(NCc1cccnc1)NC(=O)c1ccccc1 | 2 | -25 | 99 | 101
S=C(c1c[nH]c2ccccc12)N1CCCC1 | -30 | -2 | 102 | 107
O=C(c1cc(-c2ccc(Cl)cc2)n[nH]1)N1CCN(C(=O)c2ccco2)CC1 | -16 | -3 | 106 | 108
CN(CC(=O)NC(=O)Nc1ccc2c(c1)OCCO2)C1CCCCC1 | -45 | -3 | 102 | 105
COCCOc1cc(COC)nc(-c2cccc(C)c2)n1 | -14 | 4 | 103 | 107
CCCCNC(=O)C1CCN(C(=O)c2cccc(Cl)c2)CC1 | 7 | -8 | 100 | 105
C=CCc1c(O)c(CC)cc2c(C)cc(=O)oc12 | -15 | -23 | 103 | 105
CS(=O)(=O)N(CCc1ccccc1)CC(=O)NCc1ccccc1 | 9 | -3 | 98 | 102
CCOC(=O)C1CCN(C(C(=O)Nc2ccc(F)cc2)c2ccccc2)CC1 (configuration not stated) | -1 | -2 | 100 | 104
CCOc1cc2[nH]c(=O)n(CCC(=O)NC3CCCCC3C)c(=O)c2cc1OCC (configuration not stated) | -6 | 3 | 105 | 107
Cc1ccccc1S(=O)(=O)Cc1ccc(C(=O)NCCN(C)C)o1 | 2 | -9 | 102 | 102
Cn1c(SCC(=O)NC2(C#N)CCCCC2)nc2sc3c(c2c1=O)CCCC3 | 4 | -8 | 105 | 107
COc1ccc(C2C(C#N)=C(N)SC3C(=O)N(c4ccc(Br)cc4)C(=O)C32)cc1 (configuration not stated) | -8 | . | 77* | 83*
Cc1ccc(C2=NC3(CCN(C(=O)C4CCCC4)CC3)NC2=O)cc1C | -24 | -7 | 103 | 101
CN(c1nc2ccccc2nc1NS(=O)(=O)c1cccs1)C1CCS(=O)(=O)C1 (configuration not stated) | -15 | 23 | 96 | 107
O=C(CCCc1c[nH]c2ccccc12)N1CCCCCC1 | -11 | . | 109 | 111
CCOC(=O)C1CCN(c2nc3c(S(=O)(=O)c4ccc(C)c(C)c4)nnn3c3ccsc23)CC1 | -2 | -19 | 100 | 103
Cc1ccc(C=Nn2nnnc2N)s1 | -6 | . | 101 | 109

Assay outcomes from PubChem BioAssay.
